Compound activity from PubChem BioAssay.
E coli growth: blocks Escherichia coli growth. OD600 absorbance (no concentration beside the values). OD600, 23 h; stronger effect = lower value. actives 0.21% (n = 330,000);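 active = OD600 absorbance below the run mean of sample wells minus 3.6 SD, in any replicate, cut at about 0.56 in these data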;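 note: stock transfer was 300 nL into about 60 µL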
Beta2AR agonist: activates human beta-2 adrenergic receptor causing internalization; P07550; Am2.2-beta2AR cells, FAP receptor internalization, flow cytometry; reference of the scale not given here; response, % (no concentration beside the values); actives 0.43% (n = 340,000); AID 504454;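 active = response above a set limit, near 3 SD of response in nonfluorescent compounds, cut at about 42% in these data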;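 note: stock transfer was 100 nL into about 11 µL; a reference agonist was the positive control; negative values mostly stem from fluorescent compounds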
HNF4A DNA FP: change in binding of human HNF4 alpha to DNA; actives 0.3% (n = 360,000); HNF4a-FITC DNA binding, fluorescence polarization, 1 h; activity change, % at 10 µM; AID 1224865; P41235; in the data active = activity change above about 30%, passing the limit was not always enough;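 note: controls were the assay level and a saturating level of protein; the project sought stronger binding though the title names inhibitors; some compounds called inactive have numbers as strong as hits; positive values seem to mean higher polarization but the record does not say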
rRNA inh HTS: selective bacterial rRNA inhibition in E. coli; GFP signal change (wild-type ribosome), % (concentration not given with the values); E. coli WT GFP vs humanized-ribosome RFP mutants, fluorescence, 24 h; stronger effect = lower value; DMSO median 0, no signal -100; AID 720706; actives 1.6% (n = 350,000);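 active = significant combined selectivity score with lowered wild-type GFP, culture density cut under 30%, mutant RFP and density less affected; inactive = any of these conditions unmet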; note: one replicate is shown; some compounds called inactive have numbers as strong as hits
UCH37 inh: blocks the human deubiquitinase UCH37. inhibition, % (no concentration beside the values). actives 0.33% (n = 330,000). purified proteasome/UCH37, Ub-AMC cleavage fluorescence. Q9Y5K5;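 active = mean of two replicates above 20%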;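 note: 0% = compound-free wells with enzyme and 100% = wells lacking proteasome; stock transfer was 100 nL into about 20 µL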
Target sequence (Q9Y5K5 whole entry, looked up): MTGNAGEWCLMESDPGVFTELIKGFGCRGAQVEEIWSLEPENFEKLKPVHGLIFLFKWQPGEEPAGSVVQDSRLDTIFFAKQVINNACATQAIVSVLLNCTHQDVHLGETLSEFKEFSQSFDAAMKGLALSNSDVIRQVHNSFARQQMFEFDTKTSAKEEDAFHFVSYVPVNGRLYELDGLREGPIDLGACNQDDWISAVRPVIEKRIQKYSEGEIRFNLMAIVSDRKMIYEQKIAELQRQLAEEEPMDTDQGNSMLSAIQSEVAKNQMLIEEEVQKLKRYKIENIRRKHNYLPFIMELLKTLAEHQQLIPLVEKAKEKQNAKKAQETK
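Signal – fluorescence, ex 355 nm, em 460 nm · System – Proteasome-bound UCH37 · Input – 0.15 nM proteasome as dispensed · Timing – 30 min preincubation with enzyme, 25 min cleavage at room temperature · Read-out basis – percent inhibition of cleavage signal versus uninhibited and no-proteasome wells · Medium – Tris-HCl pH 7.4 with ATP-MgCl2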
ALR inh: blocks human ALR sulfhydryl oxidase activity; P55789; purified ALR, DTT oxidation, H2O2 HRP-luminol luminescence; inhibition, % (no concentration beside the values); actives 3.8% (n = 290,000); AID 485317;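 active = mean and each replicate at 75% or more; inconclusive = only one of the two met; inactive = neither met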;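 note: stock transfer was 7.5 nL into about 7.5 µL; 0% = neutral wells and 100% = wells with inactivated enzyme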
Target sequence (P55789 whole entry, looked up): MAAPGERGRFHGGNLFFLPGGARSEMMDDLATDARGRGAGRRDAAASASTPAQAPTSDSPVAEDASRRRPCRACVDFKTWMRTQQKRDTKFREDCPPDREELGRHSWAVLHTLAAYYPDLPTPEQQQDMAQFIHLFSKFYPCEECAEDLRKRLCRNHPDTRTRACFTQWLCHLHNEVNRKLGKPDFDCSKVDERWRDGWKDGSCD
FGF22 binding: binders of recombinant human FGF22 by thermal shift. Q9HCT0. SYPRO orange fluorescence; percent of sucrose octasulfate shift, DMSO zero. calls only at 9.99 µM. actives 1.5% (n = 340,000). AID 651658;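 active = melting point raised past a set limit in the mean and every replicate; inconclusive = no clear call; three in four hits are not shown here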
Target sequence (Q9HCT0 whole entry, looked up): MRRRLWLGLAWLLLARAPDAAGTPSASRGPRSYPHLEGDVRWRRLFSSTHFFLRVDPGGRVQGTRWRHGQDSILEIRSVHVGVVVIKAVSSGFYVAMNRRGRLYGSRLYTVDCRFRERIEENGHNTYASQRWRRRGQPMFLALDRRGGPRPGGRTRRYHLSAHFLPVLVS
rRNA inh HTS OD600: recorded beside rRNA inh HTS, whose call it bears; OD600 change, %; measured here: OD600 growth;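 optical density of the mix in the first replicate; 0 = DMSO median and -100 = no signal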
rRNA inh HTS RFP: recorded beside rRNA inh HTS, whose call it bears; RFP signal change, %; measured here: RFP humanized mutant strains;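 first replicate; 0 = DMSO median and -100 = no signal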
* = called active by the depositor; i = inactive; ? = inconclusive; . = no result given. A portion of the library (hit frequency here may not be typical).

no.	Beta2AR agonist	UCH37 inh	HNF4A DNA FP	FGF22 binding	rRNA inh HTS RFP	rRNA inh HTS OD600	rRNA inh HTS	E coli growth	ALR inh	Structure
1	-5	0.7	-0.2	.	0.2	-3	3	0.68	-8	COc1ccc(S(=O)(=O)N2CCCC(C(=O)N3CCCC3)C2)cc1OC (stereo unspecified)
2	-2	2.5	-5.9	i	0.6	7	3	0.67	.	CC1CN(C(C)C)C(=S)N(c2ccccc2)C1=O (stereo unspecified)
3	-3	3.2	-1.3	.	.	.	.	0.68	-2	CCOC(=O)C(Cc1c(F)cccc1F)(NC(C)=O)C(=O)OCC
4	5	0.2	3.7	i	0.4	-42	-28	.	-2	COC(=O)c1c(-c2ccc(S(C)(=O)=O)cc2)sc2ccc(OC)cc12
5	1	2.4	2.5	i	3.4	14	14	0.7	-1	COc1ccc(OC(C)C(=O)NCC2CCCO2)cc1 (stereo unspecified)
6	.	1.2	.	.	.	.	.	0.67	1	NC(C(=O)O)C(c1ccccc1)C(F)F (stereo unspecified)
7	22	6.6	-2.1	i	8.2	-10	-10	0.75	0	O=C(CCCN1C(=O)/C(=C/c2ccccc2Cl)SC1=S)Nc1cccnc1
8	-8	-0.1	1.9	i	-1.2	-1	-2	0.67	0	NC(=O)c1ccc(NC(=O)CN2CCN(S(=O)(=O)c3ccc4c(c3)OCCO4)CC2)cc1
9	-9	-0.9	-3.6	.	.	.	.	0.7	-1	O=C(NCC(c1cccs1)N1CCOCC1)c1cc2ccccc2o1 (stereo unspecified)
10	4	4.2	-0.7	.	.	.	.	0.74	.	COc1ccc(Cc2nn[nH]n2)cc1
11	2	-0.9	1.9	i	-0.9	2	0	0.7	-8	CCOC(=O)N1CCN(C(=O)C2CCN(C(=O)c3ccc(C(C)(C)C)cc3)CC2)CC1
12	-9	1.2	2.4	i	-2.8	-1	-5	0.64	.	Cc1ccc([N+](=O)[O-])cc1S(=O)(=O)Nc1cccc(-c2ccc(N3CCCC3)nn2)c1
13	-7	5.7	-1.1	i	-1.0	11	16	0.66	-45	CCS(=O)(=O)c1ccc(OC)c(N=Nc2ccc(O)c3ncccc23)c1
14	0	2.3	3.4	i	-4.1	3	22	0.65	-2	Cc1cccc(CS(=O)(=O)Cc2ccc(C(=O)NCCCN3CCOCC3)o2)c1
15	-3	1.9	2.9	i	-3.2	-4	0	0.71	48	COc1ccc(NC(=S)N2CCN(c3ccccc3)CC2)c(OC)c1
16	6	-0.5	0.6	.	.	.	.	0.67	5	COc1cccc(C(=O)Nc2cnc(NC(=O)c3ccco3)cc2C)c1
17	11	-5.5	-3.9	i	0.6	8	9	0.67	51	Cc1ccccc1-n1c(-c2ccco2)n[nH]c1=S
18	3	2.9	0.1	i	-0.4	3	7	0.71	.	O=S(=O)(Cc1c(F)cccc1Cl)c1ncn[nH]1
19	-4	0.1	0.2	i	2.1	10	12	0.63	3	COc1ccc(OCCCn2ccnc2)cc1
20	4	2.3	1.1	i	-2.6	6	4	0.71	-2	Cc1cc(C(=O)N2CCN(c3ncccn3)CC2)nn1C
21	-3	0.0	2.9	.	.	.	.	0.73	-4	O=C(NNS(=O)(=O)c1ccc([N+](=O)[O-])cc1)c1cnn(-c2ccccc2)c1-n1cccc1
22	.	0.7	3.9	.	3.3	-50	-20	0.63	-4	CCOC(=O)Nc1ccc(N2CCOCC2)c(S(=O)(=O)Nc2ccc(Cl)cc2)c1
23	-4	1.7	0.5	i	-1.8	9	6	0.63	-8	CC(=O)c1ccccc1NC(=O)COC(=O)/C=C/c1cccs1
24	1	-0.6	-1.8	.	.	.	.	0.68	-3	CCC(CC)C(=O)Nc1cc(C)cc(C)c1
25	4	4.2	-1.6	i	0.1	8	12	0.7	7	Cc1c(NS(=O)(=O)c2cc(C(=O)NCc3ccco3)cc(Cl)c2Cl)c(=O)n(-c2ccccc2)n1C

Arranged by SMILES length (high to low): some entries from above.
no.	Beta2AR agonist	UCH37 inh	HNF4A DNA FP	FGF22 binding	rRNA inh HTS RFP	rRNA inh HTS OD600	rRNA inh HTS	E coli growth	ALR inh	Structure
12	-9	1.2	2.4	i	-2.8	-1	-5	0.64	.	Cc1ccc([N+](=O)[O-])cc1S(=O)(=O)Nc1cccc(-c2ccc(N3CCCC3)nn2)c1
8	-8	-0.1	1.9	i	-1.2	-1	-2	0.67	0	NC(=O)c1ccc(NC(=O)CN2CCN(S(=O)(=O)c3ccc4c(c3)OCCO4)CC2)cc1
3	-3	3.2	-1.3	.	.	.	.	0.68	-2	CCOC(=O)C(Cc1c(F)cccc1F)(NC(C)=O)C(=O)OCC

Down the list, from the results shown:
Entries 5–16 in Beta2AR agonist: 1, ., 22, -8, -9, 4, 2, -9, -7, 0, -3, 6

Further entries:
no.	Beta2AR agonist	UCH37 inh	HNF4A DNA FP	FGF22 binding	rRNA inh HTS RFP	rRNA inh HTS OD600	rRNA inh HTS	E coli growth	ALR inh	Structure
26	-8	3.0	1.1	.	.	.	.	0.73	.	O=C1NC(c2cn(-c3ccccc3)nc2-c2cccs2)C(C(=O)c2cccnc2)C(O)(C(F)(F)F)N1 (stereo unspecified)
27	15	3.5	-8.6	i	0.3	2	-1	.	-3	COC(=O)[C@@]12CCCCN1[C@H](c1ccc(SC3CCCCC3)cc1)[C@@H]1C(=O)N(C)C(=O)[C@@H]12
28	1	.	-3.9	i	0.5	13	6	.	.	Cc1cc(Cl)ccc1OCC(=O)OCC(=O)NCCNC(=O)COC(=O)COc1ccc(Cl)cc1C
29	2	-1.0	-5.7	i	-2.9	9	1	0.71	-33	Cc1cc(NC(=O)c2ccccc2F)on1
30	-10	0.1	-9.2	i	.	.	.	0.66	-1	COc1ccc(NC(=O)CCS(=O)(=O)c2ccc(Br)s2)cc1
31	9	-106	6.4	.	.	.	.	0.71	.	Nc1ccc(O)cc1C(=O)OCC(=O)C12CC3CC(CC(C3)C1)C2
32	-1	6.4	-16	i	1.1	15	12	0.66	-7	CC(=O)Nc1ccc(NC(=O)CSc2nnc(NC(=O)c3ccc(Br)o3)s2)cc1
33	3	3.4	-2.4	i	-5.6	1	-4	.	0	O=C1NC[C@@H](c2ccccc2)OC(=O)[C@@H](Cc2ccc(F)cc2)C/C=C\C[C@@H]1CC(=O)N(CCO)Cc1ccccc1
34	4	-17	16	i	-5.6	-41	-22	0.69	.	CCCc1cc2c(=O)c(-c3nc4ccccc4s3)c(COCC(=O)O)oc2cc1O
35	3	3.1	-0.2	.	.	.	.	.	-2	CC(=O)C[C@H](O)CC(=O)[C@@H]1OC(=O)CCCCCCc2ccccc21
36	4	3.9	-4.3	.	.	.	.	0.67	-10	O=C(C1CCCN(S(=O)(=O)c2cccc3nsnc23)C1)N1CCN(c2ccccn2)CC1 (stereo unspecified)
37	-2	0.7	2.2	i	1.5*	8.7*	-35*	0.68	99*	Cc1ccc2[nH]c(C)c(CCNC(=O)c3c(N)no[n+]3[O-])c2c1
38	-7	-18	-2.5	i	-5.3	-3	-7	0.68	7	C=CCNC(=O)c1ccc2c3n(nc2c1)-c1ccc(C)cc1CO3
39	-4	3.0	0.6	.	.	.	.	0.79	.	NC1(N)OC(CN2C(=O)c3ccccc3C2=O)CS1 (stereo unspecified)
40	1	-3.6	-4.9	i	-0.3	-12	-7	0.72	?	COc1ccc(N(CC(=O)Nc2ccccc2C(=O)O)S(=O)(=O)c2ccc(C)c([N+](=O)[O-])c2)cc1
41	12	8.5	1.5	i	9.7*	-16*	-23*	0.61	30	O=C(NCCCN1CCN(c2ccc(F)cc2)CC1)Nc1ccc([N+](=O)[O-])cc1
42	-6	2.0	0.9	i	-0.4	4	1	0.66	-11	Nc1ccc(N2C(=O)c3ccccc3C2=O)c(Cl)c1
43	2	1.2	-1.0	i	-5.6	7	8	0.71	.	COc1c(C)cc(C(=O)C2CCCN(S(=O)(=O)c3c(C)noc3C)C2)cc1C (stereo unspecified)
44	-1	2.0	4.8	i	-0.7	4	3	0.66	-7	O=C(Nc1cccnc1)c1cc(Cl)ccc1Cl
45	6	2.8	-2.5	i	4.0	-22	-4	0.7	-1	O=C(OCC(=O)N1CCCc2ccccc21)c1cc(S(=O)(=O)N2CCOCC2)ccc1Cl
46	-2	12	-0.4	i	1.9	4	8	0.74	-6	O=c1[nH]c(SCc2ccccc2Cl)nc2c1cnn2-c1ccccc1
47	2	2.1	0.6	i	0.8	7	2	0.64	97*	O=C(CN1C(=O)C2CCCCC2C1=O)Nc1ccccc1N1CCCC1 (stereo unspecified)
48	-7	-1.4	3.8	i	-1.5	13	-6	0.7	-2	COC(=O)NNC(=O)C1CCC(C)CC1 (stereo unspecified)
49	5	1.2	2.3	i	0.1	8	7	0.69	-2	O=C(Nc1ccccc1)/C(=C\c1ccc(F)cc1)NC(=O)c1ccco1
50	3	3.0	-0.3	i	-1.9	-20	-1	0.71	-2	O=C(O)CSc1nnc(-c2ccccc2)c(-c2ccccc2)n1

Following part.
no.	Beta2AR agonist	UCH37 inh	HNF4A DNA FP	FGF22 binding	rRNA inh HTS RFP	rRNA inh HTS OD600	rRNA inh HTS	E coli growth	ALR inh	Structure
51	.	0.9	.	i	1.9	-18	-13	0.66	-12	Cc1nn2c(-c3cccc(NC(=O)CN4CCOCC4)c3)nnc2c2ccccc12
52	2	0.9	-0.8	i	4.0	4	5	0.72	1	O=C(COC(=O)c1cccc(Br)c1)NCC1CCCO1 (stereo unspecified)
53	3	3.6	3.6	i	-2.5*	-4.7*	-30*	0.71	1	C=CCn1cccc(C(=O)Nc2ccc(C)c(C)c2)c1=O
54	-7	-0.6	-3.5	i	0.3	17	9	0.7	-3	Cc1ccc(NC(=O)Nc2cccc3ccccc23)cc1
55	-3	-0.3	3.8	i	4.0	-8	-14	0.67	-7	CC(=O)N1CCOc2ccc(S(=O)(=O)NCCc3ccc(C)cc3)cc21
56	1	2.3	-0.5	.	.	.	.	0.65	15	CC(C)COC(=O)Cc1c(O)c2ccccc2[nH]c1=O
57	-4	0.9	5.5	i	-0.9	-4	-3	0.69	.	COc1ccccc1N1CCN(CC(=O)Nc2sccc2C#N)CC1
58	-9	2.5	3.0	i	9.1	-16	-5	0.78	40	O=C(c1ccc(COc2ccccc2Cl)o1)N1CCN(c2ccccc2)CC1
59	-13	1.7	1.2	i	-5.8	1	-3	0.62	41	Cc1ccc(CNC(=O)CCNS(=O)(=O)c2cccs2)cc1
60	-10	-7.1	1.4	i	2.6	6	11	0.7	.	CNc1nc(NC)c2cn[nH]c2n1
61	5	3.2	2.5	.	.	.	.	0.65	3	COc1ccc(OC)c(NC(=O)CSc2nnc(Cc3cccn3C)n2CCc2ccccc2)c1
62	10	0.4	0.5	.	.	.	.	0.72	7	CCCC(c1nnnn1CCOC)N1CCN(Cc2ccccc2)CC1 (stereo unspecified)
63	7	2.3	5.3	i	-3.5	-18	-17	0.65	.	CC(=O)Oc1ccc2occ(-c3ccccc3)c2c1
64	5	0.4	5.2	i	4.8	1	8	0.68	-5	CCOC(=O)C1CCN(S(=O)(=O)c2ccc(OC)c(C(=O)N3CCCCCC3)c2)CC1
